Screens from PubChem BioAssay.
VDR inh: vitamin D3 receptor (human) inhibition | actives 0.93% (n = 400,000) | VDR-SRC2-3 peptide fluorescence polarization, 2 h | P11473 | Potency, µM, for the others: max response, negative = inhibition, most hits filed as inhibitors; active = well fitted inhibition curve with a large enough effect; inconclusive = small, poorly fitted or top-dose-only effect, or another doubt; inactive = no such curve, though single readings can be large or run the other way; also: series mostly up to about 120 µM
Target sequence (P11473 whole entry, looked up): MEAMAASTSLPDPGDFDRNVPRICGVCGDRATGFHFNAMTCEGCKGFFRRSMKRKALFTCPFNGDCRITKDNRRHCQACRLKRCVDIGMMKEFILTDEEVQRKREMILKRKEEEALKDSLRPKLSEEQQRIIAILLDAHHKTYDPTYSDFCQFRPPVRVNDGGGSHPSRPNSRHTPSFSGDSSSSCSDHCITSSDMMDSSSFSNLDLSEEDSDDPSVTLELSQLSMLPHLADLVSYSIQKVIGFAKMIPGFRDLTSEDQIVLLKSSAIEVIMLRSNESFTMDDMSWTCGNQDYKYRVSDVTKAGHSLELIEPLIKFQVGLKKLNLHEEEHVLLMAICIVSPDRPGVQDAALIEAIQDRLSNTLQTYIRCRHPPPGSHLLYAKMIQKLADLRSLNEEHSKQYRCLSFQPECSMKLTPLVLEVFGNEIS
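FP read-out; VDR + SRC2-3 coactivator peptide; 23 nl compound by pintool; 2 h RT incubation; reagents held at 4 deg C, protected from light.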
An asterisk follows results filed as active; ? = inconclusive; & = joins results of further samples; [ ] = dose if it differs, or a comment. % is scaled to controls: 0 for no effect and ±100 for the full control effect; potency is read from the fitted curve at half-maximal effect. Not all compounds are listed; count on the stated rates, not on these rows.

Sample of the layout:
Compound	VDR inh
O=C(O)c1cc(S(=O)(=O)N2CC3CC3C2C(=O)O)c(Cl)cc1Cl (stereo not given)	14.5%
O=C(NCN1C(=O)C2C3C=CC(C3)C2C1=O)Nc1cccnc1 (stereo not given)	14.3%

Main list, repeating the preview:
Compound	VDR inh
O=C(O)c1cc(S(=O)(=O)N2CC3CC3C2C(=O)O)c(Cl)cc1Cl (stereo not given)	14.5%
O=C(NCN1C(=O)C2C3C=CC(C3)C2C1=O)Nc1cccnc1 (stereo not given)	14.3%
CCCn1c(C(O)c2cc(OC)ccc2OC)nc2ccccc21 (stereo not given)	-14.0%
Cc1c(C(=O)Nc2ccccc2)sc2nc(-c3cc4ccccc4oc3=O)[nH]c(=O)c12	-4.4%
CCCc1nnc(SCc2ccc(OCC)cc2)n1N	11.8%
Cc1cc(C)c(S(=O)(=O)c2ccc(F)cc2C)c(=O)[nH]1	4.0%
Cc1cc(C)n(CCOc2ccc(Br)cc2)n1	-8.9%
Cc1nnc(SCCOc2ccccc2)s1	-4.0%
O=C(OCC(=O)N1CCOCC1)c1ccc(Cl)cc1[N+](=O)[O-]	3.3%
COc1ccc2c(c1)OC[C@H]1[C@H]2N2C(=O)CN(Cc3ccc(C)cc3)C(=O)[C@@]2(C)[C@H]1c1ccccc1	-9.9%
COc1ccc(N2C(=O)CCC(C(=O)NCc3cccnc3)C2c2ccc(OC)c(OC)c2)cc1 (stereo not given)	?
N#Cc1ccc(CS(=O)(=O)c2nnnn2-c2ccccc2)cc1	44.7µM*
Cc1ccc2c(c1)N(C(=O)CCC(=O)Nc1ccc(F)cc1F)CC(C)O2 (stereo not given)	-10.3%
COc1cc(/C=C/C(=O)O)cc(S(=O)(=O)Nc2ccc(S(=O)(=O)N3CCCCC3)cc2)c1OC	-14.1%
CCOC(=O)c1sc(/N=C/c2c(O)ccc3ccccc23)cc1C	8.8%
COC(=O)CSc1nnc(CNc2ccc(Cl)cc2)n1Cc1ccccc1	-19.8%
Cc1ccc(C(=O)Nc2cnc3ccccn3c2=O)cc1	8.7%&9.0%
O=C(NCc1ccc(Cl)cc1)C(=O)Nc1ccc(Br)cc1	-2.3%
CC1CCC(NC(=O)C2CCN(c3nc4ccccc4s3)CC2)CC1 (stereo not given)	-19.9%
CC1=CC(C/C(C)=C/COc2ccc3ccc(=O)oc3c2)OC1=O (stereo not given)	8.4%
Cc1c(NC(=O)c2ccc(Cl)cc2)cc(C(C)C)c(O)c1S(=O)(=O)c1ccccc1	-12.6%
COC(CNC(=O)c1ccc(N2CCCC2=O)cc1)OC	4.9%
COc1ccccc1CNC(=O)COC(=O)/C=C/c1ccc2ccccc2n1	15.7%
COc1ccc(C)cc1-n1nnnc1SCC(=O)NC1CCCC1	-10.5%
c1ccc(C(c2nnnn2C2CCCCC2)N2CCc3ccccc3C2)nc1 (stereo not given)	3.6%
Cc1noc(C)c1S(=O)(=O)N(CC(=O)N1CCCCCC1)c1ccc(C(C)C)cc1	-12.1%
CC1=C(C(=O)OCc2ccccc2)C(c2ccc(Br)cc2)NC(=O)N1CCCCCC(=O)O (stereo not given)	-4.6%
Cc1ccc(Cc2nnc(SCC(=O)Nc3ccccc3)n(N)c2=O)cc1	-10.4%
OCCN(Cc1ccccc1)Cc1ccccc1O	13.4%
CC(C)c1ccc(NC(=O)c2cc(S(=O)(=O)NCC3COc4ccccc4O3)ccc2F)cc1 (stereo not given)	0.7%

Two entries from above, set out differently.
CC1=C(C(=O)OCc2ccccc2)C(c2ccc(Br)cc2)NC(=O)N1CCCCCC(=O)O (stereo not given)
  VDR inh: -4.6%

Cc1ccc(Cc2nnc(SCC(=O)Nc3ccccc3)n(N)c2=O)cc1
  VDR inh: -10.4%

Additional entries:
Compound	VDR inh
COc1ccccc1OC[C@H](O)CO	23.4%&2.0%
Cc1ccc(CN(Cc2ccco2)C(=S)NCC(=O)O)cc1	-13.2%
COc1cccc(NC(=O)CN(C)CC(=O)NCc2ccc3c(c2)OCO3)c1	10.4%
OC(Cc1cccnc1)(c1ccccc1)c1ccccc1	-0.5%
CN(C)CCCNS(=O)(=O)c1cc(Cl)c(Cl)cc1Cl	-18.6%
CC1(C(=O)OCC(=O)NCc2ccc(Cl)cc2)CC1(Cl)Cl (stereo not given)	-5.0%
Cc1ccc(-c2cc(C(=O)N3CCN(c4ccc(O)cc4)CC3)c3ccccc3n2)cc1	-12.5%
Cc1ccccc1N1CCN(C2=NC(=O)/C(=C\c3cccs3)S2)CC1	3.4%
O=C(CCSCc1ccc(Cl)cc1)NC1CCCC1	2.6%
CCNC(=O)c1ccc(CSc2nc3cccnc3n2Cc2ccc(OC)cc2)cc1	16.7%
O=C(C(F)C(F)(F)F)N1CCN(c2ccccc2)CC1 (stereo not given)	-6.2%
CC1=CC(C)C(CN(CCC[N+](C)(C)C)C(=O)Nc2ccccc2)C(C)C1 (stereo not given)	-10.3%
Nc1ccc2c(S(=O)(=O)O)cccc2c1S(=O)(=O)O	25.2%
COc1ccccc1CNC(=O)CSc1cc(=O)n(C)c2ccccc12	-4.2%&-13.8%
COc1cccc(NC2CC(=O)N(CCc3ccccc3)C2=O)c1 (stereo not given)	12.6%
O=C(c1sccc1-n1cccc1)N1CCCC1	-1.5%
Fc1ccccc1-c1nc2nc3ccccc3nc2n1CC1CCCO1 (stereo not given)	16.4%
C/C(=N\NC(=O)c1ccc(O)cc1)c1ccc2c(c1)OCCO2	10.5%
CSc1ccccc1C(=O)NCCSc1ccccc1	7.3%
COC(=O)c1ccccc1S(=O)(=O)N1CCC(C(=O)OCC(=O)NCC(F)(F)F)CC1	4.1%
CC(C(=O)NCC1CCCO1)c1ccc([N+](=O)[O-])cc1 (stereo not given)	19.7%
CCOc1ccc(C(=O)N[C@H](C(=O)Nc2cccc(S(=O)(=O)N3CCCCC3)c2)C(C)C)cc1	-6.4%
CCC1CN(C(=O)NCc2ccccc2)c2ccccc2O1 (stereo not given)	-10.4%
CCN(CC)CCC(c1ccc2c(c1)OCO2)c1c(O)cc(OC)cc1OC (stereo not given)	-5.9%&-6.9%
Cc1cc(N/C=C(\C#N)S(=O)(=O)c2ccc(Cl)cc2)nc(C)n1	-8.5%
CCCCCOC(=O)c1[nH]c2c(c1C)C(=O)C(C(=O)OC)C(C)C2 (stereo not given)	?
CCn1nnc2cc(C(=O)OCC(=O)N(C)Cc3cccc(F)c3)ccc21	5.0%
COCCN1Cc2cccc(C(=O)NCc3cccs3)c2C1=O	0.4%
O=C(Nc1ccccc1C(=O)N1CCCCCC1)c1cccc(S(=O)(=O)N2CCOCC2)c1	-8.9%
O=C1C=CC(=O)N1CCCCCCN1C(=O)C=CC1=O	3.16µM*
O=S(=O)(c1cccc2nsnc12)N1CCN(c2ccc(F)cc2)CC1	4.5%
CC(=O)NC1(c2ccccc2)CCN(c2nc(C)cc(C)n2)CC1	3.6%
Cc1nc2ccccc2nc(C)c1=NOCc1ccccc1Cl	-11.3%
Cc1ccc(S(=O)(=O)NC(CC(C)C)C(=O)N2CCN(C/C=C/c3ccccc3)CC2)cc1 (stereo not given)	15.0%
Cc1cc(C)nc(NNC(=O)c2ccccc2O)n1	-4.1%
COc1ccc(NC(=O)NNC(=O)COc2ccc3cc(Br)ccc3c2)cc1	-1.4%
CCOC(=O)c1ccccc1NC(=O)c1c(F)c(F)c(F)c(F)c1F	4.1%
COc1ccc(C2NC(=S)N3C(c4ccc(OC)cc4)NC(=S)N23)cc1 (stereo not given)	-12.9%
CCOC(=O)Cc1csc(NS(=O)(=O)c2ccc([N+](=O)[O-])cc2)n1	-16.6%
CCN1CCN(Cc2oc(CO)cc(=O)c2O)CC1	12.8%
O=C(NC1CCCC1)C(c1ccccn1)N(C(=O)c1csnn1)c1ccccc1Br (stereo not given)	5.5%
Cc1cccc(C(C)n2nnc3ccccc32)c1O (stereo not given)	-8.9%
Cc1cccc(N2CCN(C(=O)CCn3c(=O)c4cccn4c4cccnc43)CC2C)c1 (stereo not given)	-1.1%
COc1ccc(-c2nnc3ccc(SCC(=O)N4CCN(c5ccccc5)CC4)nn23)cc1	-7.1%
Cc1cc(C(=O)NNC(=S)NCc2ccccc2)no1	30.5%[activator]
Cc1ccc2nc(-c3ccccn3)cc(C(=O)NCCc3ccc(F)cc3)c2c1	-13.9%
C=CCNC(=O)c1ccc(OC2CCN(S(=O)(=O)N(C)C)CC2)cc1	-11.7%
COc1ccc(Nc2nc(OC)nc(N3CCOCC3)n2)cc1	-5.2%
CN(C)S(=O)(=O)c1cccc(NC(=O)COC(=O)C2CCN(C(=O)c3ccc(F)cc3)CC2)c1	-8.5%
Cc1ccc(S(=O)(=O)N2CCN(C)CC2)cc1-c1nnc2c3ccccc3c(C)nn12	-2.7%
COc1ccc(Cl)cc1NC(=O)CN1C(=O)C(C)(C)c2cc(S(=O)(=O)N3CCCCC3)ccc21	-5.7%
COc1ccc(CN2CCN(C(=O)CCC(=O)Nc3nnc(C(C)C)s3)CC2)cc1F	-4.9%
CCc1ccccc1NC(=O)CCc1c(C)nc2cc(-c3ccccc3)nn2c1C	-22.9%
COc1ccc(/C(C)=N/NC(=O)CNC(=O)/C=C/c2ccccc2OC)cc1	-22.4%
CCOC(=O)CCc1c(C)nc2cc(-c3ccc(Cl)cc3)[nH]n2c1=O	0.6%
O=C(Cn1cnc([N+](=O)[O-])n1)NCCO	-9.2%
O=C(NNC(=O)c1cccc2ccccc12)c1ccc(F)cc1	1.0%
Cn1cc(C(=O)c2ccc(Cl)cc2Cl)cc1C(=O)NN	7.5%
CC1(C)N(OCc2ccccc2)C(=O)C(=O)N(OCc2ccccc2)C1(C)C	4.4%
C#CCCc1cscc1/C=[N+](\[O-])c1ccc(C(=O)OCC)cc1	?

Following part:
Compound	VDR inh
CS(=O)(=O)c1ccc(NC(=O)c2ccccc2-n2cnnn2)cc1	-13.5%
CC1CCCN(c2nc3ccccc3nc2C(C#N)S(=O)(=O)c2cccs2)C1 (stereo not given)	-14.2%
COc1ccc(NC(=O)Nc2cc(C(=O)NCc3ccc(C)cc3)ccc2N2CCCC2)cc1	4.7%
Cc1nnc(NC(=O)CCn2cnc3ccccc3c2=O)s1	-15.9%
COc1ccc(/C=N/OC(=O)c2ccc(Cl)cc2)c(Cl)c1OC	-1.1%
Nc1ccccc1Sc1c[nH]c2ccccc12	4.2%
COc1ccccc1CCN1CCCC(CN(C)C(=O)CCC(=O)N(C)C)C1 (stereo not given)	0.9%
O=c1[nH]c2ccc(NCc3ccccc3OCc3ccc(Cl)cc3)cc2[nH]1	13.1%
O=C(CC1Oc2ccc(Cl)cc2NC1=O)NC1CCCCCC1 (stereo not given)	-5.0%
Cc1nnc(SCC(=O)c2c[nH]c3ccccc23)n1C1CC1	-8.9%
N[C@H](C(=O)O)C(O)C(O)C(O)CO (stereo not given in full)	-1.1%
NS(=O)(=O)c1ccc(NC(=O)COC(=O)c2cccc(S(=O)(=O)N3CCCC3)c2)cc1	-3.3%
CCN1CCN(CCCNC(=O)Cn2nc(C)n3c(cc4c(OC)cccc43)c2=O)CC1	-1.5%
Cc1ccc(NC(=O)C2CCN(C(=O)c3ccc(F)cc3)CC2)nc1	0.8%
CCOC(=O)c1oc2cccc(OC(C)=O)c2c1C	4.7%
COc1ccccc1N1CCN(S(C)(=O)=O)CC1	-7.5%
OCCC1CN(Cc2cccn2-c2nccs2)CCN1Cc1ccc(F)c(F)c1 (stereo not given)	2.3%
COc1ccc(S(=O)(=O)N2CCN(C(=O)c3ccco3)CC2)cc1OC	8.1%
Nc1cc2c(cc1O)CCCC2	5.4%
COc1ccc(C/C(C)=N/NC(=O)c2ccc(C)cc2C)cc1	11.1%
CCCc1cc(=O)n2nc(N3CCC(C(=O)NCc4ccco4)CC3)sc2n1	-28.3%
Cc1ccc(C)c2[nH]c(=O)c(CCNC(=O)c3ccc(S(=O)(=O)N4CCOCC4)cc3)cc12	-17.5%
Cc1ccsc1/C=C(\CC(=O)O)c1nc2ccccc2o1	5.4%
Cc1[nH]n(-c2ccccc2)c(=O)c1C=Nc1cccc(F)c1	18.2%
CSc1ccc(Cl)c(C(=O)Nc2ccc(OCC(N)=O)cc2)c1	11.7%
COc1ccccc1/C=C/C(=O)N1CCCC1	-16.9%
CCNc1ncc2nc(-c3ccc(OC)cc3)c(=O)n(C[C@H]3CCCO3)c2n1	-12.5%
CC(=O)Nc1ccc(S(=O)(=O)Oc2ccc(/C=C3\SC(N)=NC3=O)cc2)cc1	3.9%
CCN(CC)c1ccc(/C=C/C(=O)c2cccnc2)cc1	11.6%
COC(=O)c1ccccc1NC(=O)CN1CCN(C(=O)c2ccco2)CC1	3.9%
C=C(C)C(=O)OCCOC(=O)C(=C)C	0.3%
COc1cc(CCC(N)c2cccc(O)c2)cc(OC)c1OC (stereo not given)	1.0%
COC(=O)Cn1cnc2c(cnn2-c2ccccc2)c1=O	-7.3%
O=C(COC(=O)/C=C/c1cccc(Cl)c1)NCCc1ccccc1	3.0%
CCCOc1ccc(OC(=O)Cc2ccc(OC)c(S(=O)(=O)N3CCOCC3)c2)cc1	1.8%
O=C(CSc1nnc(NC(=O)C2CC(=O)N(c3ccccc3)C2)s1)NC1CCCC1 (stereo not given)	2.8%
O=C(c1cc(-c2cccnc2)nc2ccccc12)N1CCN(S(=O)(=O)c2ccc(Cl)s2)CC1	-8.4%
CC(=O)Nc1ccc(N2CCOCC2)c([N+](=O)[O-])c1	-9.9%
